High-throughput results deposited in PubChem by National Center for Advancing Translational Sciences (NCATS).
ClpP mod: qHTS Assay for Activators of ClpP. purified B. subtilis ClpP, FRET peptide cleavage, 20 min. 340,000 compounds, 1.9% hits. Potency, µM (highest dose often 57.5 µM), inactives show at the highest dose activity change, negative = active. ATP-dependent Clp protease proteolytic subunit (Bacillus subtilis (strain 168)), P80244; active = well fitted falling curve with a large enough effect; inconclusive = small, poorly fitted or top-dose-only effect; inactive = no such curve, though single readings can be large or run the other way; note: potency is the fitted concentration of half-maximal effect; the source files actives as falling curves though it sought activators and does not explain the sign; nearly all actives have a fitted effect of over 65% in size; many hits overshoot -100%
Target sequence (P80244 whole entry, looked up): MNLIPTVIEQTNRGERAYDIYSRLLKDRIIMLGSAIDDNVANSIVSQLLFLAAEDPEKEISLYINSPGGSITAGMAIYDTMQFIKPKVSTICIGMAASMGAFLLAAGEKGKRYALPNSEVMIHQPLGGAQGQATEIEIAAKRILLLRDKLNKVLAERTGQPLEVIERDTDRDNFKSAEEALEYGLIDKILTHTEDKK
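ClpP 10 microg/mL final, pH 8 Tris/KCl buffer with BSA, glycerol, Tween-20; compound pinned in; FRET-FV substrate; RT 20 min; Ex320/Em430; ΔFRET vs ADEP 5.8 microM, DMSO, no enzyme.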
PINK1 modulator: changes PINK1 expression. PINK1 immunofluorescence, high-content cytometry, 24 h. Potency, µM (highest dose often 76.6 µM), inactives show at the top dose activation (PINK1 increase), usual class: activators. 410,000 compounds, 0.2% hits. AID 624263; active = well fitted activation curve with a large enough effect; inconclusive = small, poorly fitted or top-dose-only effect; inactive = flat fitted curve, though single readings scatter; cell line not stated here;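 note: potency is the fitted concentration of half-maximal effect; % of control where 0% means no effect; nearly all actives have a fitted effect of over 65% in size; a mitochondrial uncoupler was the plate control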
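Decision-based qHTS: stable cells, 24 h exposure to five compound concentrations, CCCP as control. Fixed cells stained for PINK1 plus nuclear, mitochondrial and cell markers, cytometer read.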
TRPML1 ag: agonists of human TRPML1 channel; activation, % (no concentration beside the values); 410,000 compounds, 0.12% hits; TRPML1-expressing cells, Ca2+ dye fluorescence, FDSS; host cell line not named in the record; reference of the full effect not given here; AID 624414; Q9GZU1; in the data active = activation above about 50%; inconclusive = about 30% to 50%; inactive = below about 30%; note: 0% is about no effect; the text of the record puts the active cut at 80%
Target sequence (Q9GZU1 whole entry, looked up): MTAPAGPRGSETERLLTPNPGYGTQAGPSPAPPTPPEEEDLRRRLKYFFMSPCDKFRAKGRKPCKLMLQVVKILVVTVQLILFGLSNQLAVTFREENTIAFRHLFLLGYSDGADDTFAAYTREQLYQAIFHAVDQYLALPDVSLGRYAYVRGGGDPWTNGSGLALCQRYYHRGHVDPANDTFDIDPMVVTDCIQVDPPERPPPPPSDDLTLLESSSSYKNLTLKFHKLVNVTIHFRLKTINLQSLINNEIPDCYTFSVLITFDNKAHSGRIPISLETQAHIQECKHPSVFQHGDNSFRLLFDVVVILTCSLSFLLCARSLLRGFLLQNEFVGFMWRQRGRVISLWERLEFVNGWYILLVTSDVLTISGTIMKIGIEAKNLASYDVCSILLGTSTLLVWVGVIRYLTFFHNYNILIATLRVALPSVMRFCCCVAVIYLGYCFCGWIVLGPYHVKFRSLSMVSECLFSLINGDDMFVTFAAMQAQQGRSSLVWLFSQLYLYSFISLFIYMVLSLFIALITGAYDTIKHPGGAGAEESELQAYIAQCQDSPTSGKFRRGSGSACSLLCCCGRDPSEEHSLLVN
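In this qHTS format, compounds were pin-transferred onto Ca8-dye-loaded TRPML1-DL cells induced with Tet overnight, and intracellular Ca2+ fluorescence was recorded kinetically for 110 s after a 10 s baseline. A subsequent 4uM final 54-4 (EC80) addition followed by a second 110 s read served as the antagonist phase.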
TRPV1 potentiator: human TRPV1 potentiation; Q8NER1; TRPV1-expressing cells, Fluo-8 calcium influx, capsaicin EC20 potentiation; host cell line not named in the record; control for the full effect not named in the record; potentiation, % at 8.33 µM; 320,000 compounds, 0.02% hits; AID 540277; active means potentiation above 80%; inconclusive means 30% to 80%; inactive means below 30%; note: 0% is about no effect
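Fluo-8 calcium influx in TRPV1-expressing cells, kinetic read (ex 480/em 520 nm). Compound added and read 3 min for agonist activity, followed by capsaicin at EC20 final and 2 min further read for enhancement.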
TRPML1 blocker: inhibitors of human TRPML1 channel. Q9GZU1. TRPML1-inducible cells, Ca2+ dye fluorescence, FDSS; active compounds read low; inhibition of EC80 agonist-evoked calcium signal. activity change, negative = inhibition, % (no concentration beside the values). 390,000 compounds, 0.02% hits; in the data active means activity change below about -50%; inconclusive means about -30% to -50%; inactive means above about -30%;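 note: stimulus is agonist 54-4 at its EC80 concentration; % is set by controls: 0 for no effect and ±100 for the full control effect; compound concentration not given in the record; the text of the record puts the active cut at -80%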
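TRPML1-DL cells, Tet-induced overnight (~16 h, 37 °C) at 1,500 cells/well, were loaded with Ca8 no-wash dye plus quencher for 45-90 min at room temperature. Compounds were pinned during FDSS kinetic reading; agonist 54-4 at EC80 (4 uM final) then added.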
Menin-MLL FL inh: displaces fluorescein MLL peptide from human menin; Fluorescence polarization, fluorescein-MLL peptide displacement from menin; FP activity change, % at 61.4 µM; 290,000 tested, under 10 active; inconclusive = falling polarisation curve, or a change in total fluorescence; inactive = total fluorescence flat and polarisation flat or rising; no compound was filed as active; the % refers to the polarisation; negative = inhibition;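 note: % of control where 0% means no effect; inhibitors lower the polarisation; unlabelled MLL peptide was the positive control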
Sfp inh: inhibitors of Bacillus subtilis Sfp phosphopantetheinyl transferase | AID 1490 | Biochemical Sfp PPTase activity, qHTS | Potency, µM, for the others: max response, negative = inhibition, most hits filed as inhibitors | 310,000 compounds, 3.5% hits | Q9F4F7; active = well fitted inhibition curve with a large enough effect; inconclusive = small, poorly fitted or top-dose-only effect, or another doubt; inactive = no such curve, though single readings can be large or run the other way;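 note: the enzyme is Sfp with the accession as filed and its product quenches rhodamine fluorescence; potency is the fitted concentration of half-maximal effect; 0% = enzyme reaction without inhibitor and -100% = no enzyme wells; top concentration of the series not given in the record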
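Buffer: 50 mM Hepes-Na pH 7.6, 10 mM MgCl2, 0.01% Nonidet P-40, 0.01% BSA. Enzyme 15 nM, pre-exposed to compound 15 min; substrates then added and fluorescence change tracked over 30 min.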
Starred values were filed as active, the others as inactive; ? = inconclusive; nt = not tested or not shown; & = joins results of further samples; [ ] = remark or other dose.

SMILES,Sfp inh,TRPML1 blocker,PINK1 modulator,ClpP mod,TRPML1 ag,Menin-MLL FL inh,TRPV1 potentiator
CCCNC(=O)Cn1c(=O)n(CC2CCC(C(=O)NC)CC2)c(=O)c2sccc21 (configuration not stated),nt,36,-0.3%,-1.5%,0.3,nt,nt
CC(=O)OCC(=O)Nc1ccc(Cl)cc1Cl,-19%,-4,-0.2%,-3.2%,-0.2,2.2,3
Cc1cccc(NC(=O)C2CCCN2S(=O)(=O)c2ccc3nc(-c4ccccc4)[nH]c3c2)c1 (configuration not stated),nt,-6,1.0%,4.2%,0.2,nt,nt
O=C(O)c1ccc(NC(=O)c2cccc(N3C(=O)C4C5CCC(C5)C4C3=O)c2)cc1 (configuration not stated),31%,29,-1.8%,25µM*,-0.5,4.4,6
Cc1ccc(S(=O)(=O)NCc2ccc(C(=O)NC3CCC(C)CC3)cc2)cc1 (configuration not stated),17%,-5,4.1%,0.5%,-1.7,nt,15
Cc1cc(N2CCN(C3CCCC3)CC2)n2c(nc3ccccc32)c1C#N,-8%,16,11%,-14%,0.2,-0.1,-11
CN(C)C=NC(=O)c1ccc([N+](=O)[O-])c(CS(=O)(=O)c2ccc(Cl)cc2)c1,10%,1,0.8%,?,0.2,-1.7,4
Cc1nc2ccccc2c(=O)n1NC(=O)CCC(=O)O,10%,23,0.5%,nt,0.4,6.3,11
CN(C(=O)CN1CCN(c2cc(-c3ccc(OCc4ccccc4)cc3)ncn2)CC1)c1ccccc1,nt,nt,?,-2.8%,-0.3,nt,nt
O=C(NNC(=O)C1CC(=O)N(Cc2ccccc2)C1)c1ccc(Br)cc1 (configuration not stated),23%,7,0.2%,-2.7%,-0.6,0.5,-11
Cc1cccc(N2CCN(C(=O)c3ccc(Cl)c(S(=O)(=O)NCc4ccco4)c3)CC2)c1C,-4%,-18,-0.2%,-1.4%,1.8,-1.5,-17
COc1ccc(CCNC(=O)c2cc3c(=O)n4ccccc4nc3n(CCCN3CCOCC3)c2=N)cc1OC,14%,-1,-0.3%,-15%,-0.5,nt,?
FC(F)(F)c1cnc(/C=C/Nc2ccccc2Cl)c(Cl)c1,1%,-1,7.8%,-4.4%,-0.8,4.7,15
Cc1ccc(-c2nc(SCC(=O)NCCN3C(=O)CSC3=O)[nH]c2-c2ccc(C)cc2)cc1,-10%,nt,nt,nt,nt,-1.5,19
COc1ccc(C(=O)NCCC2=CCCCC2)cc1,1%,11,2.5%,-2.8%,0.0,6.3,-17
O=C(NCc1ccccc1)C1CCCN(S(=O)(=O)c2cccc3nsnc23)C1 (configuration not stated),18%,-5&2,-0.2%&0.3%,0.4%&-0.9%,3.3&-1.1,6.0,-4
O=C(O)c1ccc(NC(=O)c2cccs2)cc1,24%,3,8.1%[38.3 µM],0.7%,-0.4,-4.1,8
COc1cccc(-n2c(SCC(=O)NCCc3ccccc3)nnc2-c2ccoc2C)c1,12%,-1,1.8%,0.6%,0.5,-1.4,-8
CC(C)c1ccc(Nc2cc(C(=O)NCCCN(C)Cc3ccccc3)c3ccccc3n2)cc1,nt,4,0.7%,-0.2%,0.0,nt,nt
Clc1ccccc1C1=CC(c2ccco2)n2ncnc2N1 (configuration not stated),8%,-21,2.1%,-0.9%,7.9,?,4
C=CCn1c(SCC(=O)Nc2cc(C)on2)nnc1-c1ccccc1OC,nt,6,2.0%,2.6%,0.2,nt,nt
Cc1ccc(NC(=S)N(CCN2CCCCC2)Cc2ccco2)cc1Cl,-1%,3,2.3%,-1.1%,23,2.0,-8
COc1ccccc1C(=O)NCCCn1cc(Br)c(C)n1,10%,-10,-5.3%[38.3 µM],-0.5%,0.0,4.7,-8
Cc1ccc(NC(=O)c2ccco2)c(NC(=O)Cc2cccs2)c1,5%,13,3.2%[38.3 µM],-0.2%,0.1,0.0,-4
COc1ccc(CN2C(=O)C(CC(C)C)Nc3ncnc(N4CCN(c5ccccn5)CC4)c32)cc1 (configuration not stated),nt,4,7.5%,-7.3%,0.2,nt,-2
CCCCn1c(N)c(N(CC)C(=O)c2cc(S(=O)(=O)N3CCCCCC3)ccc2OC)c(=O)[nH]c1=O,nt,0,1.3%,2.4%,-0.5,nt,-1
Brc1ccc(-c2csc(-c3c[nH]c4ccccc34)n2)cc1,26%,21,15%,?,1.0,0.4,5
CCOCCCn1c(=NC(C)=O)c(C(=O)OCC)cc2c(=O)n3ccccc3nc21,15%,5&0,-3.3%,?,-0.3&-0.3,4.0,3
CCNc1c(NS(=O)(=O)c2ccc(OC)c(Cl)c2)c(=O)oc2ccccc12,15%,31,8.5%,-9.4%,0.4,3.0,-1
COC(=O)c1c(NC(=O)Cc2cccs2)sc(C(=O)N2CCCCC2)c1C,?,-12,-1.2%[38.3 µM],0.0%,0.7,0.1,6
Cc1nnc2n1NC(c1ccc(Cl)cc1)C(C(=O)N(C)C1CCCCC1)S2 (configuration not stated),12%,4,-0.3%,-2.5%,-0.7,-1.8,-4
COc1ccc(NC(=O)N2CC3(CCN(C(=O)c4ccco4)CC3)C2)cc1,4%,nt,-0.1%,nt,nt,0.4,nt
Cc1sc(NC(=O)C2CCCCC2C(=O)O)c(C(N)=O)c1C (configuration not stated),-41%,48,1.9%[38.3 µM],-15%,0.4,0.0,-39
CCc1ccc(NC(=O)c2sc(-n3nc(C)c(Cc4ccc5c(c4)OCO5)c3C)nc2C)cc1,nt,60,0.3%,0.4%,-0.2,nt,nt
CC(C)c1ccc(NC(=S)Nc2ccc(OC(F)(F)F)cc2)cc1,6%,-19,-0.5%,nt,0.5,1.0,-2
Cc1nnc(NC(=O)Cn2nc(C)c3ccccc3c2=O)s1,5%,19,-0.6%,nt,-0.3,-1.8,8
CC(=O)Nc1cccc(-c2csc(NCc3ccco3)n2)c1,45µM*,4,-0.3%,1.6%,-0.3,3.2,2
O=C(O)/C(=C\c1cccs1)Sc1nnc(-c2ccc(F)cc2)o1,1%,25,6.1%,nt,-0.4,0.3,-3
COc1ccccc1/C=N/N1C(=O)C2C3C=CC(CC3)C2C1=O (configuration not stated),13%,-1,1.2%,nt,-0.2,-0.1,-10
O=C(CCOc1ccccc1)Nc1ccc(Br)cc1,13%,12,2.3%,7.9µM*,1.6,-1.2,4
Cc1ccc(N(C(=O)c2cnccn2)C(C(=O)NC2CCCCC2)c2ccc(O)cc2)cc1 (configuration not stated),21%,-4,1.3%,nt,0.1,-2.1,18
O=C(O)C1C=CCC(C(=O)O)C1 (configuration not stated),nt,11,1.7%,-2.2%,0.8,nt,nt
CCN(CC)S(=O)(=O)c1ccc(N(C)Cc2ccc(C(F)(F)F)cc2)nc1,5%,79,1.3%,?,6.8,-1.2,-4
O=C(COC(=O)CN1C(=O)C2CCCCC2C1=O)Nc1cc(S(=O)(=O)N2CCOCC2)ccc1Cl (configuration not stated),11%,-1,0.2%,-1.5%,0.4,1.5,5
O=C(CN1C(=O)C(=O)c2ccccc21)NC1CCCCC1,4%,12,0.7%[38.3 µM],1.4%,-0.3,-1.3,6
CN(C)c1ccc(N=Nc2ccc(S(=O)(=O)O)cc2)cc1,nt,nt,1.0%,-0.2%,-0.4,nt,nt
CN1CCN(/N=C2/C(=O)Nc3ccc([N+](=O)[O-])cc32)CC1,12%,5,1.0%,1.7%,0.5,-0.7,4
CCN(Cc1ccccc1)C(=O)c1ccc(C)c(S(=O)(=O)N2CCCCC2)c1,nt,-19,3.2%,-0.1%,0.4,nt,-13
Cn1cnnc1SCC(=O)NC1CC1,nt,16,-2.6%,?,-0.4,nt,nt
CSc1ccccc1C(=O)Nc1ccc2c(c1)OCCO2,14%,?,0.8%,-1.3%,-0.1,1.2,2
O=[N+]([O-])c1cccc(-c2cc(C(F)(F)F)n3nc(-c4ccccc4)cc3n2)c1,17%,10,2.0%,-0.1%,1.1,-0.4,20
Nc1n[nH]c(N)c1N=Nc1ccc(Cl)cc1,9%,-8,2.9%,0.6%,1.2,6.2,?
CN(CC(=O)NCCc1ccc(S(N)(=O)=O)cc1)S(=O)(=O)/C=C/c1ccccc1,2%,42,-1.4%,nt,16,-1.5,19
O=C(NC1CCCCC1)[C@@H]1CSC2c3ccccc3C(=O)N21 (some centres not stated),16%,0,-0.3%,0.1%,-0.7,-0.3,-12
Cn1nc(CC(=O)Nc2ncc(Br)s2)c2ccccc2c1=O,6%,1,14%,-2.7%,0.2,-9.7,?
O=C(O)CSc1nccn1-c1cccc(Cl)c1,23%,11,0.2%,1.7%,-0.9,-2.7,2
CCCN1C2CCCC1CC(NC(=O)c1ccccc1)C2 (configuration not stated),8%,-8,-1.0%,-2.4%,0.3,4.6,16
CCOc1ccccc1-c1noc(CSc2nnc(-c3ccccc3)n2-c2cccc(C)c2)n1,nt,18,4.1%,-2.1%,3.1,nt,nt
O=C(N/N=C\C1CC=CCC1)c1ccc(Br)o1 (configuration not stated),6%,8,1.6%,-1.7%,-0.5,nt,-11
CCc1cccc(NC(=O)c2ccc3c(c2)N(Cc2cccc(Cl)c2)C(=O)c2ccccc2S3=O)c1 (configuration not stated),nt,-22,1.3%,1.2%,-0.7,nt,nt

Following part.
SMILES,Sfp inh,TRPML1 blocker,PINK1 modulator,ClpP mod,TRPML1 ag,Menin-MLL FL inh,TRPV1 potentiator
O=[N+]([O-])c1ccccc1C=NN1CCCCCC1,nt,5,22%,-0.1%,0.2,nt,nt
Cc1ccc(NC(=O)C2(C)CCCN(C(C)C)C2)cc1C (configuration not stated),nt,nt,1.7%,0.1%,-0.3,nt,nt
CC(=O)Nc1ccc(S(=O)(=O)Nc2ccccc2C(=O)N2CCOCC2)cc1,25%,-25,2.1%,nt,-0.4,-0.3,8
COc1ccc2oc(C(=O)CCC(=O)O)c(N)c2c1,-7%,3,3.0%,3.6%,0.7,-2.0,nt
